Screens from PubChem.
gsp antagonist: antagonizes gsp, the McCune-Albright syndrome mutation; gsp-mutant cells, cAMP HTRF, 30 min; control for the full effect not named in the record; hit rate 0.4% among 340,000; Potency, µM (titrated, usually from 76.9 µM), inactives show at the highest dose activity change, negative = inhibition, actives largely listed as inhibitors; active = falling curve of any shape with a large fitted effect; inconclusive = falling curve, mostly with a smaller effect; inactive = flat or rising curve; cell line not stated here;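 further: intracellular cAMP measured with PDE inhibitor Ro 20-1724 present during compound exposure; potency means the concentration at half of the fitted maximal effect; on the % scale 0 is the no-effect control and ±100 the full control effect; nearly all actives have a fitted effect of over 65% in size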
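Cells, 2000/well, grown 16–24 h in DMEM 10% FBS with 0.5 mg/ml G418, then compounds plus […] (300 uM addition stock), 30 min at 37C. cAMP read by HTRF (cAMP-d2 and anti-cAMP antibody-K in lysis buffer) after 30 min RT.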
Sfp PPTase inh: Sfp phosphopantetheinyl transferase inhibition. hit rate 3.5% among 310,000. Potency, µM, without a hit: max response, negative = inhibition, actives largely listed as inhibitors. Biochemical Sfp PPTase activity, qHTS. AID 1490; active means well fitted inhibition curve with a large enough effect; inconclusive means small, poorly fitted or top-dose-only effect, or another doubt; inactive means no such curve, though single readings can be large or run the other way;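 further: the enzyme is Sfp with the accession as filed and its product quenches rhodamine fluorescence; potency means the concentration at half of the fitted maximal effect; 0% = enzyme reaction without inhibitor and -100% = no enzyme wells; top concentration of the series not given in the record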
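Buffer: 50 mM Hepes-Na pH 7.6, 10 mM MgCl2, 0.01% Nonidet P-40, 0.01% BSA. Enzyme 15 nM, pre-exposed to compound 15 min; substrates then added and fluorescence change tracked over 30 min.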
Menin-MLL FL inh: displaces fluorescein MLL peptide from human menin; Fluorescence polarization, fluorescein-MLL peptide displacement from menin; FP activity change, % at 61.4 µM; 290,000 tested, under 10 active; inconclusive = falling polarisation curve, or a change in total fluorescence; inactive = total fluorescence flat and polarisation flat or rising; no compound was filed as active; the % refers to the polarisation; negative = inhibition;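 further: % of control where 0% means no effect; inhibitors lower the polarisation; unlabelled MLL peptide was the positive control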
TRPV1 PAM: enhances activation of the human vanilloid receptor TRPV1 | Q8NER1 | hit rate 0.02% among 320,000 | potentiation, % at 8.33 µM | TRPV1-expressing cells, Fluo-8 calcium influx, capsaicin EC20 potentiation; host cell line not named in the record; control for the full effect not named in the record; active means potentiation above 80%; inconclusive means 30% to 80%; inactive means below 30%; further: 0% is about no effect
Target sequence (Q8NER1 whole entry, looked up): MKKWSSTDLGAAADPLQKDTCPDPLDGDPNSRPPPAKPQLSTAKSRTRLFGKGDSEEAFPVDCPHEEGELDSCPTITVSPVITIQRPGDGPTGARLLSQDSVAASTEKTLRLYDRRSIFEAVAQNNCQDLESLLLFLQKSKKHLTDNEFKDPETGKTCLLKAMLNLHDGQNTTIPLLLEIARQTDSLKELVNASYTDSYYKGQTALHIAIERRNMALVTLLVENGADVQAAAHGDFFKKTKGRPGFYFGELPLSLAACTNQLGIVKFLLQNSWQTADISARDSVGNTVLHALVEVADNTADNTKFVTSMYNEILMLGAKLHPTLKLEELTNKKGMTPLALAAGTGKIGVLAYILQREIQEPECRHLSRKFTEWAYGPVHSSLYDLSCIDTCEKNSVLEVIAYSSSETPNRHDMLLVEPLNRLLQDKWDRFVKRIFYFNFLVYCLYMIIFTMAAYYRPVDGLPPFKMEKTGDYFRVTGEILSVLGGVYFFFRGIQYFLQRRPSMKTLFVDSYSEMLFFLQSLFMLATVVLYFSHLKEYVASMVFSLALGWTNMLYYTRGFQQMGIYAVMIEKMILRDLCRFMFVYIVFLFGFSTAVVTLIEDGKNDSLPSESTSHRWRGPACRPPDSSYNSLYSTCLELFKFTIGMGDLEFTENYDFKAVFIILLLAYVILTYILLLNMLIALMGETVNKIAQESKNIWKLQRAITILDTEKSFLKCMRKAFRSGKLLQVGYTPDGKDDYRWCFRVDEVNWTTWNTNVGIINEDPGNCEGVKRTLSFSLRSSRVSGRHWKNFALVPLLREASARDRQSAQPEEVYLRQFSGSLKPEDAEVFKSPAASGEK
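Fluo-8 calcium influx in TRPV1-expressing cells, kinetic read (ex 480/em 520 nm). Compound added and read 3 min for agonist activity, followed by capsaicin at EC20 final and 2 min further read for enhancement.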
CtBP-E1A inh: inhibitors of CtBP/E1A interaction | AlphaScreen GST-E1A/His-CtBP binding, 1536-well; hits give low values; control for the full effect not named in the record | activity change, % (no concentration beside the values) | hit rate 0.49% among 340,000 | AID 651724; in the data active means activity change below about -65%; inconclusive means about -30% to -65%; inactive means above about -30%; further: on the % scale 0 is the no-effect control and ±100 the full control effect; compound concentration not given in the record
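AlphaScreen with 125 nM GST-E1A and 125 nM His-CtBP (5X stocks) in Tris pH 8.0, 300 mM NaCl, BSA, Tween 20, TCEP. Compounds preincubated 2 h at 37 deg C, then glutathione donor/nickel acceptor beads added for 1 h at 37 deg C in dark.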
gsp ag: activates gsp, the McCune-Albright syndrome mutation | gsp mutant cells, cAMP HTRF, 30 min; control for the full effect not named in the record | Potency, µM (titrated, usually from 76.9 µM), inactives show at the highest dose activation (cAMP increase), actives largely listed as activators | hit rate 0.13% among 340,000 | AID 624287; active = well fitted activation curve with a large enough effect; inconclusive = small, poorly fitted or top-dose-only effect, or another doubt; inactive = no such curve, though single readings can be large or run the other way; cell line not stated here;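 further: phosphodiesterase inhibitor Ro 20-1724 added with compounds to block cAMP breakdown; potency means the concentration at half of the fitted maximal effect; nearly all actives have a fitted effect of over 60% in size; about a fifth of the inactives were tested at one dose only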
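Cells in DMEM/10% FBS with G418 were pretreated with compounds in DMSO plus […] (300 uM stock) for 30 min at 37C. cAMP was measured by HTRF (cAMP-d2 plus anti-cAMP antibody-K) after 30 min at room temperature.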
ClpP mod: qHTS Assay for Activators of ClpP | ATP-dependent Clp protease proteolytic subunit (Bacillus subtilis (strain 168)), P80244 | purified B. subtilis ClpP, FRET peptide cleavage, 20 min | Potency, µM (highest dose often 57.5 µM), for the others: at the highest dose activity change, negative = active | hit rate 1.9% among 340,000; active = well fitted falling curve with a large enough effect; inconclusive = small, poorly fitted or top-dose-only effect; inactive = no such curve, though single readings can be large or run the other way; further: potency means the concentration at half of the fitted maximal effect; the source files actives as falling curves though it sought activators and does not explain the sign; nearly all actives have a fitted effect of over 65% in size; many hits overshoot -100%
Target sequence (P80244 whole entry, looked up): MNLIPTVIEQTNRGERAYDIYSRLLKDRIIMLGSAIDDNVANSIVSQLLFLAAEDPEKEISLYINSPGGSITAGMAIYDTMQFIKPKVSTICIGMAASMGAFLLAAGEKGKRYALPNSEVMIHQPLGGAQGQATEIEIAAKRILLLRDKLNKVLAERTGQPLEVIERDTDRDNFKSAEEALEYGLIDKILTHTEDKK
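Purified B. subtilis ClpP, 10 microg/mL final in Tris/HCl pH8 with KCl, BSA, glycerol and Tween-20, cleaved an Abz/nitrotyrosine-quenched decapeptide. Fluorescence (ex 320, em 430) was read at 0 and 20 min at room temperature. Delta was normalized to 5.8 microM ADEP and DMSO/no-enzyme controls.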
* = called active by the depositor; ? = inconclusive; · = not tested or not shown; & = joins results of further samples; [ ] = remark or other dose.

The line under a structure holds: gsp antagonist	Sfp PPTase inh	Menin-MLL FL inh	TRPV1 PAM	CtBP-E1A inh	gsp ag	ClpP mod
CCN(CC)CCn1c(=S)[nH]c2cc3c(cc2c1=O)OCO3
    12%	79µM*	-4.8	-3	1	4%	-4.9%
CN1C(=O)NC(c2ccccc2[N+](=O)[O-])C2=C1CCCC2=O (stereo not drawn)
    7%	-28%	?	15	-21	19%	2.7%
CC(=O)c1cccc(NC(=O)CCS(=O)(=O)c2cc3c(cc2C)NC(=O)CO3)c1
    -9%	13%	·	1	·	19%	0.3%&1.2%
COc1ccc(-n2c(=S)[nH]c3cc(C(=O)NCCCN4CCOCC4)ccc3c2=O)cc1
    -5%	-17%	1.2	-2	6	13%	·
COCC(=O)N1CCCN(c2nc3c(C)cccc3cc2C#N)CC1
    -21%	?	0.0	0	3	-3%	-16%
CCC1Oc2ccc(C)cc2N(CC(=O)NCCc2ccc(OC)c(OC)c2)C1=O (stereo not drawn)
    -4%	·	·	·	-12	?	-3.4%
CCc1ccc(CNC(=O)CCc2nc(-c3cccs3)no2)cc1
    -17%	16%	-4.0	-1	1	-25%	-0.3%
CCN(c1ccccc1)S(=O)(=O)c1ccc(Cl)c(C(=O)NC2CCN(Cc3ccccc3)CC2)c1
    -9%	·	·	·	4	23%	?
CCOC(=O)c1cc(CC)sc1NC(=O)CN1CCN(C(=O)C2CCCO2)CC1 (stereo not drawn)
    -10%	-2%	·	-24	-8	-11%	-8.5%
NNc1nc2sc3c(c2c(=O)n1C1CCCCC1)CCN(Cc1ccccc1)C3
    -14%	6%	13	-3	2	11%[15.4 µM]	36%
COc1ccc(N2CCN(Cc3cc(=O)c(OCC(=O)NC4CCCC4)co3)CC2)cc1
    1%	·	·	0	-8	11%	-1.8%
CC1=CC(=O)C=C(C)C1=NOS(=O)(=O)c1ccccc1
    ?	-5%	0.6	0	-7	-26%	-2.1%
Nc1ccc(S(=O)(=O)Nc2cnc3c(Cl)cccc3n2)cc1
    -7%	·	·	·	-1	-4%	-0.6%
COc1ccc(C(CNC(=O)c2cccc(S(=O)(=O)Nc3ccc(F)cc3)c2)N2CCCCC2)cc1 (stereo not drawn)
    -8%	·	·	·	-16	-4%	-2.1%
CC(C)(CNS(=O)(=O)c1ccc2ccccc2c1)N1CCOCC1
    7%	·	·	-17	2	-1%	0.9%
CC(=O)Nc1ccc(NC(=O)C2CCCN2/C=C/C(=O)C(F)(F)F)cc1 (stereo not drawn)
    9%	-11%	-3.0	-10	8	20%[15.4 µM]	·
CCCC[C@H]1COCCS(=O)(=O)N1Cc1cccc([N+](=O)[O-])c1
    5%	14%	2.5	0	-3	27%	-0.2%&0.8%
O=C(N/N=C/c1ccccn1)c1cccc(NC(=O)c2ccccc2Cl)c1
    6%	-2%	-0.8	6	?	?	-0.2%
O=C(O)C1CCN(C(=O)COc2ccc3c4c(c(=O)oc3c2)CCCC4)CC1
    1%	32%[activator]	-2.7	3	-21	·	4.7%
O=C(O)c1c(Cl)c(Cl)c(Cl)c(Cl)c1C(=O)OCC1CCCO1 (stereo not drawn)
    ·	·	·	·	1	-29%	0.2%
CCOC(=O)CCS(=O)(=O)c1ccc(-c2ccc(S(=O)(=O)CCC(=O)OCC)cc2)cc1
    4%	4%	1.0	-9	13	-60%	-1.3%
CCCn1c(C(O)c2ccc(OCC)cc2)nc2ccccc21 (stereo not drawn)
    1%	11%	0.7	·	-2	1%	-1.0%
O=C(Nc1cc(C(=O)Nc2ccc(S(=O)(=O)O)cc2S(=O)(=O)O)cc(C(=O)Nc2ccc(S(=O)(=O)O)cc2S(=O)(=O)O)c1)Nc1cc(C(=O)Nc2ccc(S(=O)(=O)O)cc2S(=O)(=O)O)cc(C(=O)Nc2ccc(S(=O)(=O)O)cc2S(=O)(=O)O)c1
    ·	6%	?	·	·	·	-3.8%
COc1ccc(NC(=O)C2CCCN2C(=O)NC2CCCCC2)cc1 (stereo not drawn)
    11%	6%	-2.1	-4	16	-2%[15.4 µM]	0.8%
CC(C)(C)OC(=O)N1CCC[C@H]1c1nnc(SCc2ccccc2)o1
    8%	-13%	0.9	-17	-2	-7%[15.4 µM]	·
O=C(CSc1nnc2ccccn12)NCc1ccco1
    -5%	5%	4.7	-2	-5	2%	-17%
O=c1[nH]cnc2nn(-c3ccccc3)nc12
    5%	16%	0.1	-1	-65*	8%	-9.8%
Cc1ccc(Cl)cc1N1CCN(Cc2nnnn2C2CCCCC2)CC1
    -11%	-2%	-1.4	-8	0	?	0.8%
Cc1cc(N2CCN(c3ncccn3)CC2)nc2c(C)cccc12
    -15%	-9%	5.6	-5	4	-2%[15.4 µM]	-2.3%
C=CCSc1nnc(NC(=O)c2ccc(N3CCCC3=O)cc2)s1
    7%	·	·	23	8	12%	-16%
C=CCc1ccc(OCC(O)CN2CCc3ccccc3C2)c(OC)c1 (stereo not drawn)
    1%	5%	-7.0	-3	-13	-115%[inhibitor]	·
O=C(C1CCCCC1)N(Cc1nc2sc3c(c2c(=O)[nH]1)CCCC3)Cc1cccs1
    -18%	10%	-1.0	11	-1	22%	?
COC(=O)CNC(=O)C(NC(=O)c1ccc(Cl)cc1)C(C)C (stereo not drawn)
    -10%	-3%	2.5	7	0	0%	0.6%
CC(C)(C)OC(=O)N1CCC(c2c(C(=O)NC3CC3)cnn2-c2ccccc2)CC1
    -11%	7%	5.6	-15	1	27%	-0.1%
CCn1c(-c2cc3ccccc3cc2O)n[nH]c1=S
    ?	-1%	5.1	-1	-24	26%	-23%
COc1ccccc1S(=O)(=O)N(C)C[C@@H]1OCc2cn(nn2)CCCC(=O)N([C@@H](C)CO)C[C@H]1C
    ·	·	·	·	-9	-29%	-2.3%
CCOC(=O)C1CCCN(C(=O)COc2ccccc2F)C1 (stereo not drawn)
    5%	20%	-5.9	-3	0	13%[15.4 µM]	·
COc1ccccc1CNC(=O)COC(=O)C1=COCCO1
    17%	12%	0.1	-21	9	-60%[inhibitor]	0.7%
FC(F)(F)c1ccnc(NCc2ccco2)n1
    7%	5%	-1.7	10	-2	-2%	0.1%
COc1cc(C(=O)NC2=C(C#N)CCC2)cc(OC)c1OC
    10%	19%	-0.7	-2	·	-15%	0.0%
O=C(CCNC(=O)c1ccc(Br)cc1)Nc1nccs1
    0%	24%	-0.4	2	3	6%[15.4 µM]	0.3%
CCC(=O)c1cccc2c1N=CC1=C(CC(C)(C)CC1=O)N2
    0%	10%	0.0	11	4	-39%	-1.4%
COc1ccc2c(c1)CC/C(=C\c1ccc(OC)c(Cn3cccn3)c1)C2=O
    ?	45µM*	2.5	-4	-14	17%	-5.4%
COc1ccc(C(=O)N2CCCN(C)CC2)c(OC)c1
    1%	6%	-11	-5	3	-99%[inhibitor]	-2.7%
NC(=O)c1ccc(NC(=O)C#Cc2ccccc2)cc1
    1%	4%	1.0	-9	-8	7%	·
CCN(CC(=O)Nc1ccc(OC)cc1)CC(=O)Nc1ccc2c(c1)OCO2
    1%	·	·	6	1	-9%	1.5%
CCn1nc(NC(C)=O)c2cc3ccc(C)cc3nc21
    -8%	15%	9.0	14	-8	?	·
CCN(CC)S(=O)(=O)c1cc(C(=O)NC2CCCCC2)ccc1C
    -15%	16%	1.5	14	1	?	-0.3%
CC1CN(CC(O)COc2ccc(C(=O)c3ccccc3)cc2)CC(C)O1 (stereo not drawn)
    10%	9%	2.3	?	4	17%	0.3%
CCN(CC)S(=O)(=O)c1ccc(N2CCCCC2)c(NC(=O)/C=C/c2ccc(OC)c(OC)c2)c1
    -14%	17%	-2.6	0	12	-9%	-8.2%
O=c1c2ccccc2c(/C=N/n2cnnc2)c(O)n1-c1ccccc1
    -24%	15%	?	?	5	2%	?
CCSC1=NCCN1C(=O)C(C)(C)Oc1ccc(Cl)cc1
    4%	11%	0.0	-25	-8	-14%[15.4 µM]	·
COc1ccccc1CC(=O)NCCCc1ccccc1
    -6%	12%	2.5	-28	·	-19%	0.0%
COCCNC(=S)N/N=C/c1ccc(-c2ccc([N+](=O)[O-])cc2)o1
    -14%	?	?	-11	4	-8%	0.0%
CCCCCN(C(=O)NC(=O)Nc1ccccc1OC)S(C)(=O)=O
    6%	6%	-2.0	5	3	5%	-0.7%
Clc1ccc2c(c1)-c1nnc(Br)n1-c1ccccc1S2
    20µM*	-5%	2.0	-1	-7	2%	-0.8%
Cc1ccc(NC(=O)c2c3c(nc4ccccc24)CCC3)cc1
    7%	0%	26	-6	0	-15%[15.4 µM]	·
Cc1ccc(/C=C/C(=O)NC(=S)N2CCN(c3ccc(F)cc3)CC2)cc1
    9%	?	2.9	-8	-4	4%	·
Cc1ccccc1OCC(=O)OCC(=O)NCCNC(=O)COC(=O)COc1ccccc1C
    10%	·	·	-2	-17	8%	-4.5%
CCNC(=S)Nc1cc(-c2ccc(Cl)cc2)[nH]n1
    6%	12%	0.3	12	-1	-7%[15.4 µM]	·
Cc1ccc(/C=N/NC(=O)c2ccc(OC3CCCC3)cc2)o1
    -13%	-1%	5.4	-18	-5	21%	-4.6%
